Screening data from PubChem BioAssay.
Chronic BCR inh = inhibitors of chronic active B-cell receptor signaling; hit rate 0.05% among 340,000; Potency, µM (series often up to 46.1 µM), for the others: top-dose ratio change, negative = lower green/red ratio, actives largely listed as inhibitors; ABC-DLBCL IkBa-CBG/CBR reporter, luminescence ratio, 4 h; active = well fitted inhibition curve with a large enough effect in the signal ratio, with a control signal flat, not every such curve was filed as active; inconclusive = small, poorly fitted or top-dose-only effect, or effect the other way, or a change in a side signal; the % refers to the signal ratio;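 note: potency is the fitted concentration of half-maximal effect; plate controls were basal doxycycline-induced cells for no effect and cells given 10 µM MG132 for full effect; MG132 reads +100%, hits lower the ratio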
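Compounds up to 46 uM were incubated four hours with TMD8 cells whose green CBG68 luciferase is fused to IkappaBalpha; red CBR luminescence normalised the signal, and concentration-effect curves were fitted to fusion, red and ratio data.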
USP2a block = blocks human ubiquitin-specific protease USP2a; O75604; USP2 core, Ub-CHOP2 coupled fluorogenic reporter, 485/531; Potency, µM (titrated, usually from 38.3 µM), inactives show at the highest dose activity change, negative = inhibition, usual class: inhibitors; hit rate 0.01% among 330,000;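 note: potency is the fitted concentration of half-maximal effect; plate controls were DMSO wells for no effect and full inhibition by NEM control for full effect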
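USP2 core (10nM final) preincubated 30min RT with compound in 20mM Tris-HCl pH 8.0, 2mM CaCl2, 2mM beta-mercaptoethanol, 0.05% CHAPS; 25nM Ub-CHOP2 plus 25nM reporter substrate added, fluorescence (Ex485/Em531) read after 60min.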
GALK inh = galactokinase (human) inhibition; P51570; Purified GALK, Kinase-Glo residual ATP luminescence; Potency, µM (top dose mostly 57.5 µM), for inactives: at the top dose activity change, negative = inhibition, most hits filed as inhibitors; hit rate 0.007% among 270,000; note: potency is the fitted concentration of half-maximal effect
Target sequence (P51570 whole entry, looked up): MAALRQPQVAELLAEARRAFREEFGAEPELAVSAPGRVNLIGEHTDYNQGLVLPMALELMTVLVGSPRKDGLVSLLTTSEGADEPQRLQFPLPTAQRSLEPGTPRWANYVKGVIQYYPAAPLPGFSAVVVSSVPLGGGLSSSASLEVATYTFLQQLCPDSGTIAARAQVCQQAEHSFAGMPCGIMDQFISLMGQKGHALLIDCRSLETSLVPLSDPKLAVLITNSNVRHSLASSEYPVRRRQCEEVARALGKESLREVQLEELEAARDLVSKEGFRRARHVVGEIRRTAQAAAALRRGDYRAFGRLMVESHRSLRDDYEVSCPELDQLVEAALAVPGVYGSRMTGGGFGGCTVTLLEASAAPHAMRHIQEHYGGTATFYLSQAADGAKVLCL
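Galactose (100 uM) and ATP (35 uM) were turned over by 5 nM GALK for 1 h at RT. Kinase-Glo Plus then converted the remaining ATP into a luminescent signal.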
Giardia kill = Giardia lamblia killing. Giardia lamblia trophozoite viability. activity change, % at 7.66 µM, hits read low. hit rate 0.15% among 340,000; in the data active = activity change below about -80%; inconclusive = between about -30% and that limit;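 note: parasites exposed to compound for two days anaerobically before the ATP read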
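Media and compound were dispensed first, then trophozoites at 100 cells/well; plates sat 48 hrs at 37 deg C without oxygen before ATP luminescence reagent was added and read after 15-30 min at room temperature.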
Eya2 inh = inhibitors of human Eya2 phosphatase activity. O00167. Potency, µM (series often up to 76.9 µM), for inactives: top-dose activity, negative = inhibition, most hits filed as inhibitors. hit rate 0.006% among 330,000. recombinant Eya2, OMFP fluorescence dephosphorylation (OMFP is methylfluorescein phosphate); note: potency is the fitted concentration of half-maximal effect
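Eya2 protein (added as 0.2 uM solution) was preincubated with compound for 10 min at ambient temperature in 50 mM HEPES pH 7.5, 50 mM NaCl, 5 uM MgCl2, 0.05% BSA, 1 mM DTT. OMFP (added at 50 uM) then reacted 10 min; fluorescence read at 485/525 nm.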
Coupling enz = inhibits coupling enzyme system, counter-screen for aldolase hits | coupling enzyme system counterscreen, AmpLite Red fluorescence | activity change, negative = inhibition, % at 58.2 µM, hits read low | hit rate 0.67% among 290,000 | AID 2472; in the data active = activity change below about -30%
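Counterscreen lacking aldolase: glyceraldehyde-3-phosphate coupling-enzyme reagent preincubated 10 min at RT with compound (at 57.5 uM final), then substrate/coupling system with AmpLite Red added; fluorescence read at 525/598 nm after 20 min RT.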
An asterisk follows results filed as active; ? = inconclusive; . = not tested or not shown; & = joins results of further samples; [ ] = another dose, or the depositor's remark. Unless noted, calls come from the whole dose curve; as a rule, active = well fitted inhibition curve with a large enough effect; inconclusive = small, poorly fitted or top-dose-only effect, or effect the other way; inactive = flat fitted curve, though single readings scatter. Unless noted, % is set by controls: 0 for no effect and ±100 for the full control effect. Only part of the results is shown. The share of hits here may be higher or lower than overall.

1. COc1ccc2c3c1O[C@H]1C(=O)CC[C@H]4[C@@H](C2)N(C)CC[C@]314
2. c1ccc(-c2ccc(C(c3ccccc3)n3ccnc3)cc2)cc1 (centres undefined)
3. N#Cc1c(N2CCNCC2)nc(-c2ccco2)c2c1CCCC2
4. COC(=O)C1=C(c2ccccc2OCc2ccccc2)C[C@@H]2CC[C@H]1N2C(=O)NCCOc1ccccc1Cl
5. O=C(Nc1ncc([N+](=O)[O-])s1)c1cccs1
6. C[C@]12CCC3C(CC[C@H]4C[C@@H](O)CC[C@]34C)C1CCC2=O (some centres undefined)
7. C=CCN1CCC23c4c5ccc(O)c4O[C@H]2C(=O)CC[C@@]3(O)C1C5 (some centres undefined)
8. C=C1C[C@@H]2[C@H](CC[C@]3(C)C(=O)CC[C@@H]23)[C@@]2(C)C=CC(=O)C=C12
Screen / compound no.	1	2	3	4	5	6	7	8
Chronic BCR inh	1%	7%&5%	17%	-6%	?	-4%	.	?
USP2a block	-1%	-9%&12%	-1%	4%	-5%&-9%	3%	.	0%
GALK inh	.	-5%&-4%	4%	.	0%	.	.	5%
Giardia kill	66[activator]	-1	3	23	-87*	-3	.	.
Eya2 inh	-28%	?	-2%	-5%	-11%&5%	2%	6%	-1%
Coupling enz	0	9&-2&8	2	.	-6&0	.	.	1

9. Cc1ccc(CS(=O)(=O)Cc2ccc(C(=O)N3CCC4(CC3)OCCO4)o2)cc1
10. O=C1NCN(c2ccccc2)C12CCN(CCCC(c1ccc(F)cc1)c1ccc(F)cc1)CC2
11. Cc1ccc(CN2CCN(Cc3ccccc3)CC2)cc1
12. COc1cc(CN=C(C)c2c(O)n(C)c(=O)n(C)c2=O)cc(OC)c1
13. C=CCN1CC[C@]23c4c5ccc(O)c4O[C@H]2C(=O)CC[C@@]3(O)[C@H]1C5
14. CC(=O)C1CCC2C3CCC4CC(O)CCC4(C)C3C(=O)CC12C (centres undefined)
15. O=S(=O)(O)c1cc(O)ccc1O
16. COc1ccc2c(c1OC)C(=O)O[C@H]2[C@@H]1c2cc3c(cc2CCN1C)OCO3
Screen / compound no.	9	10	11	12	13	14	15	16
Chronic BCR inh	3%	?	?	-10%	-4%&-2%	.	7%	-3%
USP2a block	-7%	-6%	0%	1%	-1%&12%	.	0%	1%
GALK inh	0%	-2%	6%	6%	0%	.	.	.
Giardia kill	-17	-4	14	18	?	16	23	36[activator]
Eya2 inh	19%	-7%&-2%	5%	-27%	-20%&6%	.	-4%	-7%&-20%
Coupling enz	2	-3&6	3	0	2&0	.	-1	.

17. C[C@]12CC[C@H](O)CC1=CC[C@@H]1[C@@H]2CC[C@]2(C)C(=O)CC[C@@H]12
18. CCCCCSc1cc(OC)c(CCN(C)C)cc1OC
19. O=c1[nH]c2ccccc2n1C1CCN(CCCC(c2ccc(F)cc2)c2ccc(F)cc2)CC1
20. Cc1cc(Br)ccc1S(=O)(=O)NCc1ccccc1
21. c1ccc(CNCCc2c[nH]c3ccccc23)cc1
22. C[C@]12CC[C@H](O)C[C@@H]1CC[C@@H]1[C@@H]2CC[C@]2(C)C(=O)CC[C@@H]12
23. C[C@]12CC[C@@H](O)C[C@@H]1CC[C@@H]1[C@@H]2CC[C@]2(C)C(=O)CC[C@@H]12
24. C=CCN1CC[C@]23c4c5ccc(O)c4OC2C(=O)CC[C@@]3(O)C1C5 (some centres undefined)
Screen / compound no.	17	18	19	20	21	22	23	24
Chronic BCR inh	.	-2%	1%	1%	2%	-19%	-13%	-2%
USP2a block	.	0%	0%	1%	-1%	0%	5%	14%
GALK inh	.	-3%	-2%	-4%	-2%	.	-2%	2%
Giardia kill	-7	7	-11	-12	-3	6	17	20
Eya2 inh	.	-1%	-8%&4%	-14%	-11%	8%	-11%	5%
Coupling enz	.	2	-4&0&0&2	-1	1	2	2&0	1

25. C[C@H](O)[C@H]1CC[C@H]2[C@@H]3CCC4=CC(=O)CC[C@]4(C)[C@H]3CC[C@]12C
26. CC(CN(C)C1CCN(C)CC1)c1ccccc1 (centres undefined)
27. CC(C)N(CC[C@@](C(N)=O)(c1ccccc1)c1ccccn1)C(C)C
28. C[C@]12CCC3[C@@H](CC[C@H]4C[C@@H](O)CC[C@]34C)C1CCC2=O (some centres undefined)
29. CN1CCC2(CC1)NC(=O)C1=C(CN(C)CC1)N2
30. O=[N+]([O-])c1ccc(N2CCOCC2)c2cccnc12
31. O=[N+]([O-])c1cnc[nH]1
32. Cc1c(O)cccc1C(=O)N[C@@H](CSc1ccccc1)[C@H](O)CN1C[C@H]2CCCC[C@H]2C[C@H]1C(=O)NC(C)(C)C
33. CCOC(=O)c1ncn2c1CN(C)C(=O)c1cc(F)ccc1-2
34. CCN1C[C@@]2(COC)C3[C@@H](OC)C4[C@@H]1[C@@]3(C1C[C@@]3(O)[C@H](OC(=O)c5ccccc5)C1[C@]4(OC(C)=O)[C@@H](O)[C@@H]3OC)[C@@H](OC)C[C@H]2O (some centres undefined)
35. CC(C)(C)C(=O)C(Oc1ccc(Cl)cc1)n1cncn1 (centres undefined)
Screen / compound no.	25	26	27	28	29	30	31	32	33	34	35
Chronic BCR inh	?	1%	.	-11%	1%	-3%	0%	?	?	.	.
USP2a block	11%	1%	.	1%	-1%	-10%	2%	-3%	0%&2%	.	.
GALK inh	0%	4%	.	1%	-3%	0%	.	.	1%&6%	.	.
Giardia kill	9	5	.	-3	-21	-3	?	4&10	-29	.	-6
Eya2 inh	-10%	21%	.	4%	6%	1%	5%	-4%	-1%&7%&-4%	.	.
Coupling enz	4	-2	2	-1	-3	-2	.	-1&-1	3&3&2&2	3	2
